Six1-Eya2 blk: qHTS Assay for Inhibitors of the Six1/Eya2 Interaction; Homeobox protein SIX1 (Homo sapiens) + Protein phosphatase EYA2 (Homo sapiens), …; AlphaScreen GST-Six1/His-Eya2 binding, biochemical; hits give low values; control for the full effect not named in the record; activity change, % (no concentration beside the values); 0.56% of 360,000 active; AID 651725, 2012; in the data active = activity change below about -65%; inconclusive = about -30% to -65%; inactive = above about -30%; also: % is scaled to controls: 0 for no effect and ±100 for the full control effect; compound concentration not given in the record
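AlphaScreen with GST-Six1 and His-Eya2 (5X mix: 250 nM and 500 nM), glutathione donor and nickel acceptor beads; buffer 50 mM Tris pH 8.0, 300 mM NaCl, 1 mM TCEP; 1 h at 37 C in the dark.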
CtBP-E1A blk: qHTS Assay for Inhibitors of the CtBP/E1A Interaction | 0.49% of 340,000 active | AlphaScreen GST-E1A/His-CtBP binding, 1536-well; hits give low values; control for the full effect not named in the record | CtBP / adenovirus E1A interaction (AlphaScreen) | activity change, % (concentration not given with the values); in the data active means activity change below about -65%; inconclusive means about -30% to -65%; inactive means above about -30%; also: % is scaled to controls: 0 for no effect and ±100 for the full control effect
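Steps: dispense buffer (Tris pH 8.0, NaCl 300 mM, TCEP 1 mM, BSA, Tween 20); add 5X protein mix (GST-E1A, His-CtBP, 125 nM each); pin 23 nL compound; 2 h at 37 °C, dark; add 5X beads (50 ug/mL); 1 h; read.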
D2 PAM: Beta-Arrestin HTS for Positive Allosteric Modulators of the Human D2 Dopamine Receptor: Potentiators. DiscoveRx D2 beta-arrestin cells, luminescence, 90 min; 100% = 57 uM dopamine signal. potentiation, % (test concentration not listed). 0.23% of 360,000 active. AID 624464, 2012; active = potentiation of 50% or more; inconclusive = 30% to 50%; inactive = 30% or less;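 also: compound concentration not given in the record; tested on top of an EC20 dose of dopamine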
Target sequence (P14416 whole entry, looked up): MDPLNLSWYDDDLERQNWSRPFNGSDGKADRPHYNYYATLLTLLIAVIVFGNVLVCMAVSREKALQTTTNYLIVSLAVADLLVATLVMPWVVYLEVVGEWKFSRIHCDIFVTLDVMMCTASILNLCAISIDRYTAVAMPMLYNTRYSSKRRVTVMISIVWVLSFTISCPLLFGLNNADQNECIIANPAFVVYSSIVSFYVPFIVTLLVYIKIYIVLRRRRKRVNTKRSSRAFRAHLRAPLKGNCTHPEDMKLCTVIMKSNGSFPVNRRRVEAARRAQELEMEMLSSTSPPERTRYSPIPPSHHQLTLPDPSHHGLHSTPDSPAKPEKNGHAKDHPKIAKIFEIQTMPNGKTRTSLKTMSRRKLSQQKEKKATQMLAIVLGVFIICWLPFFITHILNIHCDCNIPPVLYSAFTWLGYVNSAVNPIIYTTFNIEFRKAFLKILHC
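PathHunter D2 cells, attached overnight at 37 deg C, received compound in DMSO plus dopamine at EC20 (50 nM final) for 90 min at 37 deg C. Beta-arrestin recruitment was read as luminescence after 1 h with detection reagent at ambient temperature.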
TRPML1 inh: qHTS for Inhibitors of the Human Mucolipin Transient Receptor Potential 1 (TRPML1). Mucolipin-1 (Homo sapiens), Q9GZU1. activity change, negative = inhibition, % (test concentration not listed). 0.02% of 390,000 active. TRPML1-inducible cells, Ca2+ dye fluorescence, FDSS; hits give low values; inhibition of EC80 agonist-evoked calcium signal; in the data active means activity change below about -50%; inconclusive means about -30% to -50%; inactive means above about -30%;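 also: stimulus is agonist 54-4 at its EC80 concentration; % is scaled to controls: 0 for no effect and ±100 for the full control effect; compound concentration not given in the record; the text of the record puts the active cut at -80%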
Target sequence (Q9GZU1 whole entry, looked up): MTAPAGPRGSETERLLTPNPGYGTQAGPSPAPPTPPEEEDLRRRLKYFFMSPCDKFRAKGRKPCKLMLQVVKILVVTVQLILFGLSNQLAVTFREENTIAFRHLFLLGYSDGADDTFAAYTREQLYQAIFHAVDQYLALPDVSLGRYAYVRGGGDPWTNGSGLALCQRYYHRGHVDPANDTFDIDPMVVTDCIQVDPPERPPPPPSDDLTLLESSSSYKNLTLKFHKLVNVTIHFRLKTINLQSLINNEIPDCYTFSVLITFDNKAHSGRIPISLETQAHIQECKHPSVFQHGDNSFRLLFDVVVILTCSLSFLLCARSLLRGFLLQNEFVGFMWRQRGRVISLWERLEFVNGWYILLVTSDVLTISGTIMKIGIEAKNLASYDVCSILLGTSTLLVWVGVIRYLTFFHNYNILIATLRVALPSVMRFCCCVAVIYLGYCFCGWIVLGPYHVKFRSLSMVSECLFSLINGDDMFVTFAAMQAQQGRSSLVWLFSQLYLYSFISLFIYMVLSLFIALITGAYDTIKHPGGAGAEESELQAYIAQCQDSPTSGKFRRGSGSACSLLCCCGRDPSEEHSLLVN
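Calcium fluorescence in TRPML1-DL cells induced overnight with Tet: a 110 s read after compound pin addition, then a 110 s antagonist read after challenge with 54-4 at 4 uM final (EC80).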
TRPML1 ag: qHTS for Agonists of the Human Mucolipin Transient Receptor Potential 1 (TRPML1). Mucolipin-1 (Homo sapiens), Q9GZU1. TRPML1-expressing cells, Ca2+ dye fluorescence, FDSS; host cell line not named in the record; reference of the full effect not given here. activation, % (test concentration not listed). 0.12% of 410,000 active; in the data active = activation above about 50%; inconclusive = about 30% to 50%; inactive = below about 30%; also: 0% is about no effect; the text of the record puts the active cut at 80%
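TRPML1-DL cells, Tet-induced overnight (~16 h, 37 degrees C), loaded 45-90 min at room temperature with Ca8 no-wash calcium dye plus quencher. FDSS fluorescence: 10 s baseline, compound pin-transfer, 110 s agonist read, then EC80 54-4 (4uM final) and 110 s antagonist read.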
TRPV1 PAM: HTS Assay for Compounds that Act as Potentiators of the Vanilloid Receptor 1; Transient receptor potential cation channel subfamily V member 1 (Homo sapiens), Q8NER1; TRPV1-expressing cells, Fluo-8 calcium influx, capsaicin EC20 potentiation; host cell line not named in the record; control for the full effect not named in the record; potentiation, % at 8.33 µM; 0.02% of 320,000 active; AID 540277, 2011; active means potentiation above 80%; inconclusive means 30% to 80%; inactive means below 30%; also: 0% is about no effect
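TRPV1-expressing cells were cultured overnight at 35.5C and loaded with Fluo-8 calcium dye for 40 to 90 min at room temperature. After a 10 s baseline, compound was added and calcium influx was read kinetically for 3 min (ex 480/em 520 nm).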
Starred values were filed as active, the others as inactive; ? = inconclusive; / = no result given.

Results follow in this order: Six1-Eya2 blk, TRPV1 PAM, D2 PAM, TRPML1 inh, TRPML1 ag, CtBP-E1A blk
CN(CCOc1ccccc1)C(=O)c1ccc2c(=O)n3c(nc2c1)CCC3
 : 0, -5, -25, 8, 0.0, 5
O=C(COc1ccc([N+](=O)[O-])cc1)NC(=O)NC1CCS(=O)(=O)C1 (stereo not given)
 : 0, -6, 8, 6, -0.7, 11
Cc1cc(NC(=O)CCC(=O)N(Cc2ccco2)C(C(=O)NCC2CCCO2)c2ccncc2)no1 (stereo not given)
 : 3, 5, -3, 4, 0.3, 4
Cc1ccc(S(=O)(=O)N(C)c2ccc(C(=O)Nc3ccccc3C(=O)N3CCOCC3)cc2)cc1
 : 8, 0, -10, -4, -0.2, -12
O=C(c1cc2ccccn2n1)N1CCN(c2ccccn2)CC1
 : 1, /, -1, -6, -0.2, 7
Cc1cc(C)n(CCCN2CCC(C(=O)Nc3cccc(-c4cccc(F)c4)c3)CC2)n1
 : -2, 6, -31, 14, 2.3, -10
O=[N+]([O-])c1cccc(NN=Nc2ccccc2)c1
 : -25, 2, -5, /, /, -4
Nc1c(C(=O)Nc2ccc(Br)cc2)sc2nc(-c3ccco3)ccc12
 : 18, -3, 2, -14, 2.3, 12
CCOC(=O)Nc1ccc2c(c1)N(C(=O)CCN(CC)CC)c1ccccc1CC2
 : 2, 27, -3, -8, -0.3, /
O=c1ccn(-c2ccccc2)[nH]1
 : -2, 6, 4, 12, -0.7, -12

Continuation.
Results follow in this order: Six1-Eya2 blk, TRPV1 PAM, D2 PAM, TRPML1 inh, TRPML1 ag, CtBP-E1A blk
CC1=NN(C(=O)Cc2ccc([N+](=O)[O-])cc2)C(O)(c2cccnc2)C1 (stereo not given)
 : 2, -5, -19, -12, 0.9, -5
COc1ccccc1NC(=O)Cn1cc(C(=O)C2CC2)c2ccccc21
 : -1, 11, 1, 4, 0.0, 0
O=C(O)c1cc([N+](=O)[O-])c(N2CCCC2)c([N+](=O)[O-])c1
 : 2, 5, -27, 29, 0.4, 5
CCSc1ncc(Cl)c(C(=O)Nc2ccccc2)n1
 : 4, -14, -12, -17, 2.7, 8
COc1ccc(-n2nc3cc(C)c(NC(=S)NC(=O)c4ccccc4C)cc3n2)cc1
 : 3, 1, -12, 20, 0.6, 3
CCc1nccn1S(=O)(=O)c1cc(OC)ccc1OC
 : 0, 4, -1, -12, 1.5, 0
CN(CC1CCOCC1)C(=O)CC1C(=O)NCCN1C/C=C/c1ccccc1 (stereo not given)
 : -5, 4, -6, -13, 0.3, 7
CC(=O)N1N=C(N)SC1c1ccc(Cl)c(Cl)c1 (stereo not given)
 : 6, /, -10, -9, -0.4, 0
CN1C=CC2=C(C#N)C(N)C(C#N)(C#N)C(c3ccccc3)C2C1 (stereo not given)
 : -5, -9, -19, 12, 5.4, -2
Cc1cc(C)nc(SCc2ccc(C(=O)NN=C3C4CC5CC(C4)CC3C5)cc2)n1
 : 4, 0, -1, -3, -0.6, 0

New compounds follow
Results follow in this order: Six1-Eya2 blk, TRPV1 PAM, D2 PAM, TRPML1 inh, TRPML1 ag, CtBP-E1A blk
Cn1cccc1CC(=O)NNC(=O)Nc1ccc(Cl)cc1
 : -1, 10, 1, 26, -0.4, -5
COc1cc2c(cc1OC)C(COc1ccc(F)cc1)NCC2 (stereo not given)
 : 0, -6, -17, -17, -0.9, /
COc1ccc(CN2CCN(C(=O)c3ccco3)CC2)cc1OC
 : -1, 1, ?, -6, 0.6, /
CC(C)(C)OC(=O)N1CCC(c2cc(-c3cccs3)n[nH]2)CC1
 : -3, 1, -6, 26, 0.4, -2
CSc1nnc(CCNC(=O)OC(C)(C)C)o1
 : -2, -6, -15, 0, 0.0, /
O=C1c2cccc3cccc(c23)C(=O)N1CCCN(C(=O)c1cccs1)c1cccc(F)c1
 : -1, 1, -13, 11, 1.8, 1
COc1ccc(N(CC(=O)NC2CCCC2)C(=O)CCC(=O)Nc2cc(C)on2)c(OC)c1
 : -1, -21, 1, -9, -1.4, 5
Cc1oc(-c2ccc(Cl)cc2)nc1CN1CCCN(C(=O)c2ccco2)CC1
 : -1, 6, -30, 3, 0.1, 0
O=C(NCc1ccc(-c2csnn2)cc1)c1cc(Cl)cc(Cl)c1
 : 1, -14, -3, 54, 0.9, 12
COC(=O)c1sccc1NC(=O)c1c(F)c(F)c(F)c(F)c1F
 : 4, /, 1, -6, 2.7, -1

Additional entries:
Results follow in this order: Six1-Eya2 blk, TRPV1 PAM, D2 PAM, TRPML1 inh, TRPML1 ag, CtBP-E1A blk
Cc1ccccc1C(C)NC(=O)COC(=O)Cn1cc(C(F)(F)F)ccc1=O (stereo not given)
 : 4, -2, -4, 22, 2.3, -23
Cc1nc(N)ncc1Sc1ccccc1
 : -1, -3, -11, 9, -0.8, 2
Cc1noc(C)c1-c1ccc(C(=O)NCc2cccs2)c2occc12
 : ?, /, -4, /, -0.6, ?
Cc1ccccc1NC(=O)Cc1nc(COC(=O)c2ccc(O)cc2O)cs1
 : ?, 14, -9, 4, 1.9, -22
COc1ccc(-c2c[n+]3c(n2-c2ccc(C)cc2)CCCCC3)cc1
 : 4, 4, -12, 10, -0.1, 6
Cc1ccc(S(=O)(=O)N2CCCC2C(=O)OCc2nc3ccccc3s2)cc1 (stereo not given)
 : 8, 3, -6, 28, -0.2, 10
Cc1ccc2nc(NC(=O)COC(=O)c3ccccn3)sc2c1
 : -24, 27, -8, 14, -0.5, 15
CCc1ccc2oc(-c3ccc(NC(C)=O)cc3)nc2c1
 : -16, -5, -3, 12, 0.6, -3
O=C1C(N2CCOCC2)=Cc2cccc3cccc1c23
 : ?, /, -15, -12, 1.4, -1
CCc1ccc2c(c1)C(=O)C(=O)N2CC(=O)Nc1ccc(NC(=O)c2ccccn2)cc1
 : -6, -20, -16, 14, 3.3, -14

More structures follow:
Results follow in this order: Six1-Eya2 blk, TRPV1 PAM, D2 PAM, TRPML1 inh, TRPML1 ag, CtBP-E1A blk
CC1ON=C(c2ccccn2)N(Cc2ccc(S(C)(=O)=O)cc2)C1=O (stereo not given)
 : 1, /, 1, /, -0.2, 5
O=C(c1ccc(Br)s1)N1CCc2ccccc2C1
 : 6, -21, -9, 58, 2.0, 3
Cc1cn([C@H]2C[C@H](O)[C@@H](/C=C/C(=O)N3CCN(Cc4ccc(F)cc4)CC3)O2)c(=O)[nH]c1=O
 : 1, /, -4, -19, 1.1, 8
COc1cc(CCC(=O)Nc2ccc(S(=O)(=O)N3CCCC3)cc2)cc(OC)c1OC
 : -8, 23, 4, -1, -0.3, -6
O=C(CSc1nnc(-c2ccc(C(F)(F)F)cn2)s1)c1ccccc1
 : 10, /, -4, 3, -0.6, 2
CC(C)OC(=O)c1cc(=O)[nH]c2ccccc12
 : 6, 13, 4, 7, 0.2, 4
Cc1cccc(NS(=O)(=O)c2ccc(NS(=O)(=O)c3cccs3)cc2)c1
 : -1, 2, 2, -2, -0.1, 0
Cc1ccc(CSc2nnc(-c3ccncc3)o2)c(C)c1
 : 10, -3, -4, 0, -0.1, 9
Nc1nc(-c2ccccc2)nn1C(=O)c1ccco1
 : -3, 7, -7, -20, 0.1, -6
CC(C)CNC(=O)CSc1nc2nn(-c3ccccc3)c(=O)c-2c2n1CCCCC2
 : -7, -10, 2, -11, 2.2, 3

Next section:
Results follow in this order: Six1-Eya2 blk, TRPV1 PAM, D2 PAM, TRPML1 inh, TRPML1 ag, CtBP-E1A blk
COc1cc(/C=N/NC(=O)Cc2ccc(Br)cc2)cc(OC)c1O
 : -15, -10, -2, 13, -0.2, -13
O=C(C[C@H]1C[C@@H]2c3cc(NC(=O)Nc4ccccc4F)ccc3O[C@@H]2[C@H](CO)O1)NCc1ccccn1
 : -1, /, -5, 17, 0.1, -4
Cn1c(=O)c2c(nc(NCCCO)n2Cc2cccc(C(F)(F)F)c2)n(C)c1=O
 : 3, -5, 1, 32, -0.8, 1
CSCC[C@H](NC(=O)OC(C)(C)C)C(=O)N1CCC(C(=O)N[C@@H](C)C(=O)NC(C)c2ccccc2)CC1 (stereo not given in full)
 : 5, -3, -33, /, /, 4
CC(C)CCNC(=O)c1nnc(Cc2ccc(Cl)cc2)o1
 : 0, 2, -2, 46, -0.1, 3
COc1ccc(OC)c(NC(=O)CSCc2cnn(-c3ccccc3)c2-n2cccc2)c1
 : ?, 4, -2, 5, 0.4, -21
CCC(=O)Nc1cccc(C(=O)c2ccc(C)c(C)c2)c1
 : 0, 25, 2, 5, 0.3, 9
COc1ccccc1OCC(=O)Nc1ccccc1C(=O)Nc1cccc(C(=O)O)c1
 : 18, 2, -12, -10, 2.2, -3
CCC1CN(C(=O)N2CCC(C(=O)NCc3ccc(F)cc3)CC2)c2ccccc2O1 (stereo not given)
 : 2, 0, 3, 1, -0.2, -2
CC(=O)c1cccc(NS(=O)(=O)c2ccc(-c3cnc(C4CC4)o3)cc2)c1
 : 0, -9, -8, 13, 4.8, /

Remaining list, next part
Results follow in this order: Six1-Eya2 blk, TRPV1 PAM, D2 PAM, TRPML1 inh, TRPML1 ag, CtBP-E1A blk
CCOC(=O)C1CCCN(C(=O)c2ccc(Cl)c(S(=O)(=O)N3CCCCCC3)c2)C1 (stereo not given)
 : 16, -5, -6, 2, 0.9, -5
CCN1CCN(C(=S)c2ccc(OCC(=O)N3CCOCC3)cc2)CC1
 : 7, 6, -9, 14, -0.1, -6
O=C(Nc1cc(S(=O)(=O)N2CCOCC2)ccc1N1CCOCC1)c1ccc(Cl)nc1
 : 1, -3, 5, /, /, -5
OCC1(CCCc2ccccc2)CCN(Cc2cc(F)ccc2F)CC1
 : -3, -3, -3, 6, -0.9, /
Cc1c(OCC(=O)N(C)C)ccc2c(-c3ccccc3)cc(=O)oc12
 : -7, -7, -3, -3, 0.5, 4
CCN1C(=O)c2cccc3cccc1c23
 : 13, 9, -12, -7, -0.4, 14
N#C/C(=C\c1c(N(Cc2ccccc2)Cc2ccccc2)nc2ccccn2c1=O)C(N)=O
 : -21, -2, -6, -14, 0.7, -5

In another format: 3 of the compounds above.
Cc1c(OCC(=O)N(C)C)ccc2c(-c3ccccc3)cc(=O)oc12
  Six1-Eya2 blk: -7 | TRPV1 PAM: -7 | D2 PAM: -3 | TRPML1 inh: -3 | TRPML1 ag: 0.5 | CtBP-E1A blk: 4

CCOC(=O)C1CCCN(C(=O)c2ccc(Cl)c(S(=O)(=O)N3CCCCCC3)c2)C1 (stereo not given)
  Six1-Eya2 blk: 16 | TRPV1 PAM: -5 | D2 PAM: -6 | TRPML1 inh: 2 | TRPML1 ag: 0.9 | CtBP-E1A blk: -5

N#C/C(=C\c1c(N(Cc2ccccc2)Cc2ccccc2)nc2ccccn2c1=O)C(N)=O
  Six1-Eya2 blk: -21 | TRPV1 PAM: -2 | D2 PAM: -6 | TRPML1 inh: -14 | TRPML1 ag: 0.7 | CtBP-E1A blk: -5

Screening results from PubChem.
